Vaccinia mCherry – qHTS for Stage-Specific Inhibitors of Vaccinia Orthopoxvirus: mCherry Reporter Primary qHTS; 0.63% of 310,000 active; Potency, µM (titrated, usually from 36.5 µM), without a hit: at the highest dose activity change, negative = inhibition, actives largely listed as inhibitors; AID 720579, 2013; Vaccinia virus mCherry reporter infection, fluorescence; about a quarter of the inactives have no number; active = well fitted inhibition curve with a large enough effect; inconclusive = small, poorly fitted or top-dose-only effect; inactive = no such curve, though single readings can be large or run the other way; tested in A549 cells; also: nearly all actives have a fitted effect of over 35% in size; inactives centre near -10
VACV Venus inh – qHTS for Stage-Specific Inhibitors of Vaccinia Orthopoxvirus: Venus Reporter Primary qHTS; Vaccinia virus Venus reporter expression, fluorescence; 0.46% of 330,000 active; Potency, µM (titrated, usually from 36.5 µM), without a hit: at the highest dose activity change, negative = inhibition, actives largely listed as inhibitors; active means well fitted inhibition curve with a large enough effect; inconclusive means small, poorly fitted or top-dose-only effect; inactive means no such curve, though single readings can be large or run the other way; tested in A549 cells; also: nearly all actives have a fitted effect of over 30% in size; inactives centre near -10
Numbers without * were called inactive; i = inactive; ? = inconclusive; / = no result given; & = joins results of further samples; [ ] = remark or other dose. % is scaled to controls: 0 for no effect and ±100 for the full control effect; potency is read from the fitted curve at half-maximal effect.

A first look (3 entries):
SMILES	Vaccinia mCherry	VACV Venus inh
COc1ccc(-c2[nH]ncc2CN(C)Cc2cccnc2)c(OC)c1	-2.1%	-20.7%
CCN(CC(=O)Nc1c(F)cccc1F)C(=O)c1cc(S(=O)(=O)N(C)C)ccc1N1CCCC1	-19.2%	-19.4%
CN(NC(=O)c1ccccc1)c1ncc(C(F)(F)F)cc1Cl	1.8%	6.7%

Main list, previewed entries included:
SMILES	Vaccinia mCherry	VACV Venus inh
COc1ccc(-c2[nH]ncc2CN(C)Cc2cccnc2)c(OC)c1	-2.1%	-20.7%
CCN(CC(=O)Nc1c(F)cccc1F)C(=O)c1cc(S(=O)(=O)N(C)C)ccc1N1CCCC1	-19.2%	-19.4%
CN(NC(=O)c1ccccc1)c1ncc(C(F)(F)F)cc1Cl	1.8%	6.7%
Cc1cc(NC(=O)c2ccc3c(c2)C(=O)N(c2cccc(C)c2C)C3=O)no1	i	-11.0%
CC(C)(C)C(=O)Nc1nnc(SCC(=O)Nc2nccs2)s1	i	-7.6%
COc1ccc(NC(=O)c2oc3ccccc3c2NC(=O)C2CCCCC2)c(OC)c1	0.3%	1.8%
C[C@]12CCC(=O)C=C1CC[C@@H]1[C@@H]2C(=O)C[C@@]2(C)[C@H]1CC[C@]2(O)C(=O)CO	-11.4%&-13.8%	-11.9%&-9.8%&-14.9%
COc1ccc(NC(=O)c2cnc(SC)n2-c2ccc(F)cc2)c(OC)c1	i	-6.6%
O=C(Cc1ccc(Cl)cc1)NNS(=O)(=O)c1ccc([N+](=O)[O-])cc1	-10.8%	-9.8%
Cc1cc(C)cc(N(C(=O)CNC(=O)c2cccs2)C(C(=O)NC2CCCC2)c2cccnc2)c1 (centres undefined)	-15.4%	-7.9%
CCN(CC)c1ccc(NC(=O)c2cccnc2)cc1	?	-24.2%
Cc1cc(F)ccc1S(=O)(=O)Nc1ccccc1C(=O)NCc1cccnc1	-13.3%	-9.7%
Cc1ccc(S(=O)(=O)C2(C(=O)N3CCCCC3C)CC2)cc1 (centres undefined)	-13.8%	-18.3%
COc1ccc(S(=O)(=O)N2CCCCCC2)cc1C(=O)NCc1ccco1	-10.2%	0.0%
CCOc1ccc(NC(=O)CC(c2ccccc2)c2ccc(F)cc2)cc1 (centres undefined)	-23.9%	-16.9%
N#Cc1c(Nc2ccccc2)c(/C=N/NCCO)c[nH]c1=O	-17.3%	-7.2%
O=C(Nc1nc2ccccc2s1)c1cccc(S(=O)(=O)N2CCc3ccccc32)c1	-23.0%	-21.3%
O=C(O)CC1S/C(=N/N=C/C=C/c2ccccc2[N+](=O)[O-])NC1=O (centres undefined)	-23.1%	-7.0%
CCCCN(C=O)c1c(CC)nc2c(OCCn3cccc3)cccn12	2.4%	-11.7%
CCCc1cc(=O)[nH]c(SCC(=O)N(C)CC(=O)Nc2ccc(F)cc2)n1	i	-7.2%
Cc1nc(C)c(C(=O)C2=C(O)C(=O)N(CCN(C)C)C2c2ccccc2)s1 (centres undefined)	-11.5%	-5.7%
CCOc1ccc(NS(=O)(=O)c2c(C)nc3sc(C)c(C)n3c2=O)cc1	-18.8%	-24.0%
COC(=O)[C@H](CO)N1C(=O)[C@@H]2[C@H](C1=O)C1C=C[C@H]2C1	-10.0%	4.1%
CCOc1ccc(NC(=O)c2nnn(CC(=O)Nc3ccccc3OCC)c2N)cc1	-28.1%	-15.1%
COc1ccc(CC(N)c2csc(NC(=O)C(c3ccccc3)c3ccccc3)n2)cc1 (centres undefined)	-26.6%	-20.2%
More compounds:
SMILES	Vaccinia mCherry	VACV Venus inh
COc1ccccc1CNC(=O)c1cccc(S(=O)(=O)N2CCCC2)c1	-19.0%	-9.2%
CCC1NC(=O)c2cccnc2-n2c1nc1cc(C)cc(C)c1c2=O (centres undefined)	-22.1%	-12.4%
COc1ccc(S(=O)(=O)N[C@H](C(=O)O)C(C)C)cc1	/	1.6%
CCOc1cccc2cc(-c3nc4sc5c(c4c(=O)[nH]3)CCC(C)C5)c(=O)oc12 (centres undefined)	-12.4%	0.1%
CCOC(=O)CSC1=Nc2ccccc2C2=NC(CCC(=O)NCc3ccc(OC)cc3)C(=O)N12 (centres undefined)	-4.7%	-0.8%
O=c1c2oc3ccccc3c2ncn1Cc1ccc(Cl)cc1	15.1%	4.5%
Cc1ccc(S(=O)(=O)c2nc(-c3cccs3)oc2N2CCC(C)CC2)cc1	-23.6%	-7.1%
CCOC(=O)N(CC)OC(=O)Nc1ccc(Cl)cc1	-20.4%	-6.6%
COc1ccc(C(=O)Nc2nnc(S(=O)(=O)N3CCCc4ccccc43)s2)cc1	-5.9%	2.9%
COc1ccc2c(c1)CCc1c(C(=O)Nc3ccccc3C(F)(F)F)noc1-2	-13.4%	-3.7%
CCOc1cc(NC(=S)NCc2ccco2)c(OCC)cc1NC(=O)CC	-24.2%	-16.6%
COc1ccc(C(=O)Nc2c(O)ccc3ccccc23)cc1	-21.6%	2.6%
Cc1cccc(-n2c(SCC(N)=O)nc3c(c2=O)C2(CCCC2)Cc2ccccc2-3)c1	?	?
C[C@@H]1CCC[C@@]2(O[C@@H](CCO)C[C@H](O)[C@H]2O)O1	i	-7.6%
O=C(CS(=O)(=O)c1c[nH]c2ccccc12)Nc1ccc2c(c1)OCCO2	i	0.7%
Cc1c(CNCCCc2ccccc2)c(C(=O)O)c(C)n1Cc1ccccc1	-6.5%	-4.8%
Cc1ccc(CN(C(=O)c2ccc(C(C)(C)C)cc2)c2ccccn2)o1	-23.1%	-18.6%
O=C(c1cc2nc(-c3ccc(F)cc3)cc(C(F)(F)F)n2n1)N1CCOCC1	/	-15.0%
O=C(CN1CCCc2ccccc21)N/N=C/c1c(O)ccc2ccccc12	11.2µM*	?
C=CCN(C(=O)CCC(=O)Nc1cc(C)on1)C(C(=O)NC1CCCC1)c1ccc(OC)c(OC)c1 (centres undefined)	-16.9%	0.0%
COc1ccccc1CCNC(=O)CN1C(=O)NC2(CCCC2)C1=O	i	-8.9%
CCn1nc(C(=O)NNS(=O)(=O)c2ccc(C)cc2)c2ccccc2c1=O	-7.9%	-1.4%
Cc1cccnc1NC(=O)CNC(=O)C12CC3CC(CC(C3)C1)C2	i	-9.2%
O=C(C[C@@H]1C=C[C@H](NS(=O)(=O)c2ccccc2F)[C@@H](CO)O1)NCCCN1CCOCC1	-1.9%	-11.3%
CC[C@@H]1C/C=C\Cc2ccccc2[C@H](C(=O)C[C@H](O)CC(C)=O)OC1=O	-25.2%	4.8%

One compound at a time (already shown).
Cc1ccc(S(=O)(=O)c2nc(-c3cccs3)oc2N2CCC(C)CC2)cc1 is listed with Vaccinia mCherry = -23.6%; VACV Venus inh = -7.1%
O=c1c2oc3ccccc3c2ncn1Cc1ccc(Cl)cc1 is listed with Vaccinia mCherry = 15.1%; VACV Venus inh = 4.5%

The list goes on.
SMILES	Vaccinia mCherry	VACV Venus inh
CC1(C(=O)Nc2ccc(Cl)c(C(F)(F)F)c2)Cc2c(-c3ccccc3)ccnc2O1 (centres undefined)	-15.5%	2.3%
CCOC(=O)c1ccc(N(CC(=O)NC2CCCC2)C(=O)CNC(=O)c2ccco2)cc1	-13.0%	-5.7%
CC(C)CC1(C(=O)O)NC(c2ccccc2O)C2C(=O)N(C(C)C)C(=O)C21 (centres undefined)	i	-11.5%
COC(=O)c1cccc(NC(=O)CSc2nc3cccnc3n2C)c1	-22.9%	?
CC(c1ccon1)N(C)Cc1cn(Cc2ccccc2)nc1-c1ccc2c(c1)OCO2 (centres undefined)	i	-11.9%
COc1ccc(CCNC(=O)c2ccccc2NC(=O)C2=C(C)OCCS2)c(OC)c1	7.4%[7.34 µM]	17.9%[7.34 µM]
Cc1sc2ncnc(N3CCN(S(=O)(=O)c4ccccc4)CC3)c2c1C	i	0.9%
CCc1noc(C)c1C(=O)OCC(=O)c1ccc(NC(=O)CC(C)C)cc1	-18.8%	-14.5%
COc1ccc(C(=O)Nc2ccc(S(=O)(=O)Nc3cc(C)nc(C)n3)cc2)cc1OC	i	-4.7%
Cc1ccccc1/C(=N\S(=O)(=O)c1ccc(Br)cc1)Nc1ccccc1	-18.2%	-26.8%
Cc1cc(Cl)ccc1N1C(=O)CC(NNC(=O)c2cccnc2)C1=O (centres undefined)	1.5%	-2.8%
OCC1(Cc2ccc(Cl)cc2)CCN(CC2CC=CCC2)CC1 (centres undefined)	-21.3%	-17.3%
O=C(Nc1cccc([N+](=O)[O-])c1)c1cc2ccccc2cc1O	?	?
CN1CCc2nc(SC(C(=O)O)c3ccccc3)c(C#N)c(-c3cccs3)c2C1 (centres undefined)	-13.5%	-18.3%
Cc1ccc(C)c(N2CCN(CCCNC(=O)Nc3cc(Cl)ccc3C)CC2)c1	-27.9%	-26.8%
O=C(N/N=C/c1cccc([N+](=O)[O-])c1)c1ccncc1	-5.2%	-11.6%
COc1cccc(C2=NOC(C(=O)N3CCN(c4ccccc4)CC3)C2)c1OC (centres undefined)	i	-13.6%
CCN(C[C@H]1N[C@@](CC)(C(=O)OC)[C@H]2C(=O)N(Cc3ccccc3)C(=O)[C@@H]12)S(=O)(=O)c1ccc(C(C)(C)C)cc1	i	0.0%
CCOC(=O)c1cc(-c2ccccc2)n(-c2cccc(C(=O)Nc3cccc(C)c3)c2)c1C	-24.1%	-11.3%
CCc1ccc(N2CC(C(=O)Nc3ccc(S(=O)(=O)Nc4ncccn4)cc3)CC2=O)cc1 (centres undefined)	-19.0%	-2.3%
CC(NS(=O)(=O)CCNC(=O)c1ccccc1)c1ccccc1 (centres undefined)	-11.1%	-4.9%
CC(C)OCCCNC1=C(Cl)C(=O)c2ccccc2C1=O	-12.5%	-4.0%
Cc1cccc(OC(C)C(=O)N2CCC(c3nc4ccccc4o3)CC2)c1C (centres undefined)	5.4%	-3.2%
c1ccc(OCc2cc(-c3ccccc3)no2)cc1	i	-0.3%
Cc1ccc(C2C(C#N)=C(N)Oc3n[nH]c(-c4cccnc4)c32)o1 (centres undefined)	-11.8%	-12.8%
(cont.)
SMILES	Vaccinia mCherry	VACV Venus inh
O=C(NCc1ccccn1)C(F)(F)C(F)(F)C(=O)NCc1ccccn1	-5.8%	-3.8%
CCN(CC)C(=O)c1sc2c(c1C)c(=O)n(Cc1ccccc1)c(=O)n2Cc1ccc(Cl)cc1	?	-18.6%
O=C1C(Cc2cccc([N+](=O)[O-])c2)SC(=Nc2ccccc2)N1c1ccccc1 (centres undefined)	-17.3%	-6.0%
CCCN1CCN(C(=S)NCc2ccc(Cl)cc2)CC1	i	1.5%
COc1ccc(NS(=O)CCCc2ccccc2)cc1 (centres undefined)	10.7%	15.8%
COc1ccccc1N1CCN(S(=O)(=O)c2cn(C)cn2)CC1	-19.3%	-4.2%
Cc1cc(C(=O)NC2CCCc3c2cnn3-c2cccc(C)c2C)c(C)o1 (centres undefined)	-18.8%	-1.0%
CCCC(=O)Nc1nnc(SCC(=O)N2CCCCC2)s1	-2.8%	3.4%
NS(=O)(=O)c1cccc(NC(=O)CN2CCc3ccccc32)c1	-5.3%	0.8%
Fc1ccc(Nc2nc3nonc3nc2Nc2cccc(C(F)(F)F)c2)cc1	?	?
O=C(c1cc([N+](=O)[O-])cc([N+](=O)[O-])c1)N(c1ccccn1)c1ccccn1	i	-10.3%
O=C(Nc1ccc(Cl)cc1)C(Cl)C(=O)c1ccccc1 (centres undefined)	-22.5%	-14.5%
CCOc1ncccc1C(=O)Nc1ccc2nc(C)sc2c1	i	-9.7%
Cc1nc2ccccc2c2c(N)cccc12	-7.3%	-7.3%
CCC[n+]1c(C)sc2c3c(ccc21)CCCC3	-14.3%	-3.1%
CCOC(=O)NC1(NC(C)C)Oc2ccccc2O1	-7.4%	-19.5%
O=C(Oc1c(Br)cc(C(=S)N2CCOCC2)cc1Br)c1ccc(Cl)cc1	i	-16.3%
CC(=O)c1ccc(N2CCN(C(=O)CNC(=O)c3ccc(Br)o3)CC2)cc1	-27.2%	-8.9%
Cc1ccc(C(C)C)c(OCC(=O)N/N=C/C2CCCCC2)c1	2.7%	-1.3%
CCOC(=O)c1cnc2cc(Cl)c(OC)cc2c1NCC1CCCO1 (centres undefined)	-7.0%	-13.1%
CC(C)CN1CC(C)C(=O)N(c2ccccc2)C1=S (centres undefined)	i	-5.0%
CN(C(=O)c1cc2nc(-c3ccco3)cc(C(F)(F)F)n2n1)c1ccc(OC(F)(F)Cl)cc1	0.3%	2.7%
C[C@H](CO)N1C[C@H](C)[C@H](CN(C)C(=O)Nc2cccc3ccccc23)Oc2c(NC(=O)c3ccc(-c4nccs4)cc3)cccc2C1=O	i	-11.4%
CCN(CC)CCn1c2c(c(SCC(=O)Nc3ccc4c(c3)OCCO4)nc1=O)CCC2	-5.6%	-14.6%
COc1ccc(S(=O)(=O)N2CCCC2)cc1C(=O)N1CCCCC1	i	-15.1%
Continued:
SMILES	Vaccinia mCherry	VACV Venus inh
O=S1(=O)CC(N2CCCCC2)C1CN1CCCCC1 (centres undefined)	i	-12.8%
Cc1ccccc1OCC(=O)Nn1c(COc2ccccc2)nc2ccccc2c1=O	-4.1%	-7.7%
COC(=O)c1cc(C(=O)Nc2nc3ccccc3[nH]2)cc([N+](=O)[O-])c1	-7.0%	-5.3%
COc1cccc(CNCc2ccc(OC)c3ccccc23)c1OC	-17.1%	-18.5%
O=C(COc1ccc(Br)cc1)N/N=C1/SCC(=O)N1Cc1ccco1	-6.6%	3.1%
CCc1ccc(CNC(=O)CCn2nc(C)c3c(C)n(-c4ccccc4)nc3c2=O)cc1	i	-4.4%
CCOc1ccc(/C=N/NC(=O)CC(=O)Nc2ccc(Cl)c(Cl)c2)cc1	-15.6%	-10.7%

Assay outcomes: PubChem BioAssay, National Center for Advancing Translational Sciences (NCATS)
